Vaccinia pol inh: inhibitors of vaccinia virus processive DNA synthesis (E9 polymerase); in vitro processive DNA synthesis, absorbance read-out; active compounds read low; some inactives read as strong as hits; 46,000 compounds, 0.94% hits; AID 493162; normalized absorbance, % (concentration not given with the values);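 active means replicate mean up to 90% and picked by the depositor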;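 further: 100% = median of the test wells of a plate; 100 nL library stock went into each well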
* = called active by the depositor.

SMILES | Vaccinia pol inh
COc1ccc(OC)c(C2N(Cc3ccc(C)cc3)CCCN2Cc2ccc(F)cc2)c1 (stereo unspecified) | 88.7
O=C(Nc1c(C(=O)c2ccccc2)oc2ccccc12)c1ccc(Cl)cc1 | 107.9
Cc1ccc2nc(SCC(=O)N(c3ccccc3)C(C)C)[nH]c2c1 | 101.6
O=C(OCc1ccccc1)c1ccccc1C(=O)c1ccccc1 | 99.1
CC(C)(C)c1cn2cccc(OCc3ccc(Cl)c(Cl)c3)c2n1 | 108.5
Fc1cccc(F)c1C=Nc1cccnc1Cl | 108.5
CCOc1cc2c(cc1/C=C1/NC(=O)N(Cc3ccccc3)C1=O)OCO2 | 99.7
Cc1cccc(C)c1N=C1NC(=O)CS1 | 107.1
CC(C)c1ccc(C2C(C#N)=C(N)C(C#N)(C#N)C3=CCN(C)CC32)cc1 (stereo unspecified) | 100.8
COc1ccc2[nH]c3nc(=S)[nH]nc3c2c1 | 100.8
Cc1ccc(N(C(=O)C(F)(F)F)C(C(=O)NC2CCCC2)c2cccs2)cc1F (stereo unspecified) | 100.3
CCN=C1S/C(=C\c2ccc(-c3cccc(C(=O)O)c3)o2)C(=O)N1CC | 99.5
Cc1cc(NC(=O)NN2CCOCC2)nn1-c1c(Cl)cccc1Cl | 99.1
CSc1sc(SC)c(C[n+]2ccccc2)c1C[n+]1ccccc1 | 100.2
CCCc1nc2c([nH]1)C(c1cccc(O)c1)C(C#N)=C(N)O2 (stereo unspecified) | 99.6
C=CCN=C1NN(c2ccc3c(c2)OCCO3)C(C(=O)Nc2ccccc2)=C(C)S1 | 100.0
CN(C)C(=O)c1cccn1-c1ncc(C(F)(F)F)cc1Cl | 85.4
O=C1/C(=C/c2cccc(Br)c2)SC(=S)N1CC(=O)N1CCCc2ccccc21 | 99.8
CC(C)(C)c1ccc(OCC(=O)N2CCN(c3ccc(O)cc3)CC2)cc1 | 100.0
CC(=O)Nc1nnc(C23CC4CC(CC(C4)C2)C3)s1 | 100.7
COC(=O)c1cn(-c2ccccc2)nc1-c1ccccc1 | 109.7
CC1(C)CC(NC(=O)c2ccc3c(c2)OCO3)CC(C)(C)N1 | 90.5
Cc1ccc(C(=O)Nc2nc(-c3ccc(C#N)cc3)cs2)cc1 | 100.7
CCN(CC)c1cc(-c2cccs2)nc(SCC(=O)c2cccs2)c1C#N | 100.0
CC[N+]1(CC)Cc2cc3ccccc3cc2C1 | 99.5
CN(C)c1ccc(C=Nc2ccc3[nH]c(=O)[nH]c3c2)cc1 | 100.3
Nc1cc(N2CCCCC2)nc(N)[n+]1OS(=O)(=O)[O-] | 100.3
O=C(CSc1ccccc1C(=O)O)Nc1cccc(C(F)(F)F)c1 | 100.8
Cc1ccc(C2C(Cc3ccccc3)N3C=Cc4ccccc4C3C2(C#N)C(N)=O)c(C)c1 (stereo unspecified) | 100.0
O=c1cc(CO)oc(CN2CCc3ccccc3C2)c1O | 100.7
O=C(CS(=O)(=O)c1c[nH]c2ccccc12)N1CCCCC1 | 97.9
CN(C)S(=O)(=O)c1ccc(C(=O)N=c2sc3cc(S(C)(=O)=O)ccc3n2C)cc1 | 100.1
COc1ccc(/C=C/C(=O)NCCN=C2NS(=O)(=O)c3ccccc32)cc1 | 99.8
CCc1nc2c(cnn2-c2ccccc2)c2nncn12 | 109.0
CCc1ccccc1NC(=O)CC(NCC1CCCO1)C(=O)O (stereo unspecified) | 97.1
Cn1c(=O)c2c(nc(S(C)(=O)=O)n2C)n(C)c1=O | 99.9
CCSC1=N/C(=C\c2cccnc2)C(=O)N1c1ccccc1 | 104.5
CCCC(=O)Nc1ccc(-c2nc3cc(C(C)C)ccc3o2)cc1 | 100.2
O=C(O)c1cccnc1SC1CC(=O)N(Cc2ccccc2)C1=O (stereo unspecified) | 100.4
O=C(O)CCC(=O)N1CCc2ccccc21 | 97.5
COC(=O)C1=C(C)N(c2ccc(OC)cc2)C(C)=C(C(=O)OC)C1c1ccccc1 | 100.3
Cc1ccc2[nH]cc(CCNC(=O)c3ccccc3)c2c1 | 100.1
COC(=O)C1=C(C)N(c2ccccc2)/C(=C/c2cccs2)C1=O | 99.5
Cc1ccc(C)n1CC1CCNCC1 | 102.7
CC(C)CCN1C(=O)c2ccccc2C1C(=O)NCc1cccnc1 (stereo unspecified) | 84.2
COc1ccc(CNC(=O)c2cnc(Nc3ccccc3OC)c3ccccc23)cc1 | 101.9
Cc1ccc(-n2nc(C)c(C3=CCCCC3)c2N)cc1 | 101.6
O=C(c1ccsc1)N1CC=C(c2ccccc2)CC1 | 109.6
O=C(Nc1ccccc1N1CCCC1)c1ccco1 | 106.9
Fc1ccccc1Nc1nc(NCc2ccccc2)c2ccccc2n1 | 80.6
CCOC(=O)C1=CC(=C2C(=O)NC(=O)NC2=O)c2ccccc2O1 | 99.9
Cc1ccc(NC(=O)C2C3C=CC(C3)C2C(=O)O)cc1 (stereo unspecified) | 100.6
CN(C(=O)C(Cc1ccccc1)n1cccc1)C1CCCCC1 (stereo unspecified) | 104.5
O=C1NCCN1CCNS(=O)(=O)c1cccs1 | 106.6
C/C(=C/C(=O)N1CCN(C)CC1)C(=O)O | 100.4
CCCCCC(C)N (stereo unspecified) | 103.5
CC(NC(=O)CSc1nn(-c2ccccc2)c(=S)s1)c1ccccc1 (stereo unspecified) | 100.6
CCN1C(=O)c2cccc3c(S(=O)(=O)NC4CCCC4)ccc1c23 | 89.4
CN(C)c1cccc(C(=O)N/C=C/n2cnc3cc(C(F)(F)F)ccc32)c1 | 100.8
CCCn1c(=O)c(C(=O)NCCc2ccccc2)c(O)c2ccccc21 | 94.1

The list goes on.
Structure	Vaccinia pol inh
CCOC(=O)C1=C(CN2CC=C(c3ccccc3)CC2)NC(=O)NC1c1ccc(OC)cc1 (stereo unspecified)	101.5
Cc1csc2nc(CSc3ccc(Cl)cc3)c(Br)n12	100.2
Cc1[nH]c2ccccc2c1C(c1ccncc1)N1CCOCC1 (stereo unspecified)	99.2
CCOc1cccc(/C=C2\SC(=S)N(CC)C2=O)c1O	100.1
O=C(NCCO)c1cc2sc3ccccc3c2s1	105.7
CCCOc1ccc(/C=C2/SC(=O)N(CN3CCCCC3)C2=O)cc1	99.3
COC(=O)C1=C(NC(=O)COc2ccccc2)CCS1	94.4
N#Cc1c(NC(=O)CCCCl)sc2c1CCC2	93.7
CC(CS(=O)(=O)c1ccccc1)N1CCCCC1 (stereo unspecified)	100.3
CCOC(=O)C1C(=O)C=C(c2cccs2)CC1c1ccc(C)cc1 (stereo unspecified)	100.1
CCOC(=O)c1cnc2c(ccc3ccccc32)c1NC1CC(C)(C)NC(C)(C)C1	58.1*
O=C(O)c1cc(C(=O)O)c2cccc(Cl)c2n1	101.3
CCOC(=O)c1nn(-c2ccccc2)c2nc(=O)c(C#N)c(-c3ccccc3)n12	98.0
Cc1ccccc1Cn1c(C)c(CNC2CCCC2)c(C(=O)O)c1C	97.9
CCOC(=O)C1=C(c2ccc(Cl)cc2)Sc2nnc(C(F)(F)F)n2N=C1N	98.2
CCC1(CC)C(C)=[N+](C)c2ccccc21	100.6
COC(=O)c1c(NC(=O)CC2Sc3ccccc3NC2=O)sc(C)c1C (stereo unspecified)	102.3
COC(=O)C(C(=O)OC)C(Nc1ccccc1)c1ccccc1 (stereo unspecified)	20.0*
C[N+](C)(C)CC#CCN1CCCC1=O	99.0
CCOC(=O)Nc1ccc(C)cc1C	102.5
Cc1c(C(N)=O)sc2nc(-c3ccccc3)cn12	96.0
O=c1c(/C=N/O)coc2ccc(Cl)cc12	93.7
CCC(Oc1cccc(C)c1)c1nc2ccccc2[nH]1 (stereo unspecified)	101.6
O=C(Cc1noc2ccccc12)NCCc1ccc(Cl)cc1	94.5
c1ccc(-c2csc3ncnc(N4CCOCC4)c23)cc1	100.4
O=C(O)c1ccccc1SC(C(=O)O)c1ccccc1 (stereo unspecified)	101.2
Cn1nc(CSc2ccc(Cl)cc2)c(CO)c1Cl	112.3
OC(CNCc1ccc(Cl)cc1Cl)C(F)(F)F (stereo unspecified)	99.8
O=C(O)c1ccc(NC(CC(=O)c2ccc(Cl)cc2)c2ccccc2)cc1 (stereo unspecified)	100.2
CC(C)N(C(=O)Cn1nnc2ccccc21)c1ccccc1	94.4

Filtered by structure: those above containing a CF3 group (6)
Structure	Vaccinia pol inh
Cc1ccc(N(C(=O)C(F)(F)F)C(C(=O)NC2CCCC2)c2cccs2)cc1F (stereo unspecified)	100.3
CN(C)C(=O)c1cccn1-c1ncc(C(F)(F)F)cc1Cl	85.4
O=C(CSc1ccccc1C(=O)O)Nc1cccc(C(F)(F)F)c1	100.8
CN(C)c1cccc(C(=O)N/C=C/n2cnc3cc(C(F)(F)F)ccc32)c1	100.8
CCOC(=O)C1=C(c2ccc(Cl)cc2)Sc2nnc(C(F)(F)F)n2N=C1N	98.2
OC(CNCc1ccc(Cl)cc1Cl)C(F)(F)F (stereo unspecified)	99.8

(continued)
Structure	Vaccinia pol inh
N#Cc1ccccc1Cn1c(=O)n(CCCCC(=O)NCc2ccco2)c(=O)c2ccccc21	92.8
CC(=O)Nc1ccccc1C(=O)N1CCCCC1	92.9
CC1CCCC(C)N1C(=O)CSc1ccccc1 (stereo unspecified)	106.2
CCNc1nc(NCC)n2c(SCC(=O)c3cccs3)nnc2n1	98.2
O=S(=O)(NCCN1CCCC1)c1cc2ccccc2s1	112.5
NC(=S)NC1CC2C=CC1C2 (stereo unspecified)	98.4
COc1ccc(OC)c(C(=O)COc2ccccc2C#N)c1	101.0
CCC(=O)NC(C)Cc1c[nH]c2ccccc12 (stereo unspecified)	85.7
CC(C)C(Nc1ccc(C(F)(F)F)cc1Cl)C(=O)O (stereo unspecified)	104.4
CC(C)CNC(=O)c1cc(-c2ccc(Cl)cc2)on1	102.5
Cn1c(COc2cccc3cccnc23)nnc1SCC(=O)c1ccccc1	101.5
CC(C)c1ccc(N(C(=O)c2ccccc2)C2C=CS(=O)(=O)C2)cc1 (stereo unspecified)	96.9
CSc1nc(/N=C/N(C)C)n2nc(-c3ccccc3)cc2n1	109.7
CC(C)Nc1nc(-c2ccccc2O)nc2ccccc12	101.9
COc1ccc(C(=O)Cn2ccnc2C(=O)N2CCN(c3ccccn3)CC2)cc1	102.7

As entered above.
Value of CC1CCCC(C)N1C(=O)CSc1ccccc1 (stereo unspecified) in Vaccinia pol inh: 106.2
Value of O=S(=O)(NCCN1CCCC1)c1cc2ccccc2s1 in Vaccinia pol inh: 112.5
Value of CC(C)CNC(=O)c1cc(-c2ccc(Cl)cc2)on1 in Vaccinia pol inh: 102.5
Value of N#Cc1ccccc1Cn1c(=O)n(CCCCC(=O)NCc2ccco2)c(=O)c2ccccc21 in Vaccinia pol inh: 92.8
Value of Cn1c(COc2cccc3cccnc23)nnc1SCC(=O)c1ccccc1 in Vaccinia pol inh: 101.5

Next structures
Structure	Vaccinia pol inh
CC(C)CC1(C)OCC(C[N+]2(C)CCCCC2)O1 (stereo unspecified)	100.0
COc1ccc(-c2nc3ccccn3c2NC(=O)C(C)C)cc1	86.7
O=C(O)c1ccc2[nH]c(=O)c(=O)[nH]c2c1	101.2
CC(C)CCNC(=O)c1cccc(Cl)c1	97.1
CCCCn1c(SCC(=O)OCC)nc2c(sc(=S)n2CCc2ccccc2)c1=O	107.7
c1cc2c(cc1C1CCCCC1)c1c3n2CCN=C3CCC1	99.2
CC(=O)Nc1ccc(-c2nc3ccccc3o2)cc1	95.3
CCCn1c(CNC(=O)c2cc(OC)c(OC)c(OC)c2)nc2ccccc21	107.5
CCOc1ncccc1C(=O)Nc1cccc(C(=O)Nc2cccc(S(=O)(=O)CCO)c2)c1	99.3
Cc1ccc(-c2cc(C(=O)N3CCCN(C)CC3)c3ccccc3n2)cc1	93.9
CC(C)CC(NC(=O)C1CCCCC1)C(=O)N1CCN(c2ccccc2F)CC1 (stereo unspecified)	94.3
Nc1nc(SCC(=O)NCc2ccccn2)nc2sc3c(c12)CCCC3	99.0
FC(F)(F)C1(C(F)(F)F)N=C(c2ccccc2)OC(N2CCCCC2)=N1	100.3
O=C(C1CCN(c2nnc(-n3cccc3)s2)CC1)N1CCCCC1	97.1
Clc1ccc(Sc2c(-c3ccccc3)nc3ncccn23)cc1	100.0
O=C1CCCc2nc(-c3ccc(O)cc3)ncc21	99.7
O=C1N=c2ccccc2=C1c1sc(N2CCOCC2)nc1O	100.1
CC1CCCCN1S(=O)(=O)c1ccc(C(=O)Nc2nc3ccc4ccccc4c3s2)cc1 (stereo unspecified)	99.6
Cc1ccc(C(=O)OCC(=O)NCC2CCCO2)c(C)c1 (stereo unspecified)	96.8
O=C(COCc1cc(-c2ccc(F)cc2)on1)Nc1ccc(F)cc1F	107.4
CC1CCCCN1C(=O)Cc1ccc(Cl)cc1 (stereo unspecified)	101.4
Cc1ccc(N(C)C(=O)N2CCN(c3ccccn3)CC2)cc1	107.0
Cc1ccc(NC(=O)c2oc3ccccc3c2NC(=O)c2ccccc2)cc1	103.5
CC(C)C(NC(=O)OCc1ccccc1)C(=O)O (stereo unspecified)	97.0
O=C(CCC(=O)c1ccc(Br)cc1)Nc1cccnc1	101.7
O=C(CSc1ccccc1)N1c2ccccc2Sc2ccccc21	93.6
Cc1cc(N2CCN(C)CC2)nc2ccc(NC(=S)N3CCCCC3)cc12	96.7
CC1CCc2c(sc3nc(-c4cc5ccccc5oc4=O)[nH]c(=O)c23)C1 (stereo unspecified)	103.2
CC1(C)C(=O)C2(CCCCC2)C(=O)OC1C(=O)c1ccccc1 (stereo unspecified)	100.1
O=C(CCCc1ccccc1)Nc1ccc2c(c1)OCCO2	102.1
CCC(=O)c1ccc(OC(=O)C2c3ccccc3Oc3ccccc32)cc1	100.1
c1ccc2c(CSc3nc4ccccc4s3)cccc2c1	99.6
COc1ccc2[nH]cc(CCNC(=O)c3ccco3)c2c1	100.5
CC1(C)CC(=O)C=C(Nc2sc3c(c2C#N)CCCC3)C1	100.1
CCN(CC)S(=O)(=O)c1ccc(C(=O)Nc2ccc(-n3nncc3-c3ccccc3)cc2)cc1	98.4
CC1(C)CC2(CCCN(C(=S)Nc3ccccc3)C2)CCO1 (stereo unspecified)	100.2
O=C(NC12CC3CC(CC(C3)C1)C2)c1ccccc1Cl	104.2
O=C1CN(S(=O)(=O)c2ccc3[nH]c(=O)ccc3c2)CC(=O)N1CCc1ccccc1	105.1

Some of the compounds tested. The share of hits here may be higher or lower than overall.
